Tgondii IFNg: T. gondii growth inhibition with IFN-gamma, primary screen, cell-based; Toxoplasma gondii growth in IFN-gamma-treated host cells; active compounds read low; reference of the scale not given here; activity change, negative = inhibition, %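 (about 20 µM by stock and volumes)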; 69,000 compounds, 3.8% hits; AID 1259416, 2018;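 active = below -70%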;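 note: host cells are HeLa cells infected with Toxoplasma gondii; parasite growth read as luciferase light; one replicate is shown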
Numbers without * were called inactive; i = inactive; & = joins results of further samples. Some of the compounds tested; count on the stated rates, not on these rows.

SMILES	Tgondii IFNg
O=C(NCc1ccco1)C1CCN(c2nc3ccccc3s2)CC1	30
Nc1nc(=S)[nH]c2c1C1(CCCC1)Cc1ccccc1-2	-3
COC(=O)c1cc(OC)ccc1-c1ccc(NC(C)=O)cc1	-2
S=C(NCCOCCOCCNC(=S)Nc1ccccc1)Nc1ccccc1	13
Cc1ccc(S(=O)(=O)n2ccnc2)cc1C	34
CC=Cc1ccc2n(c1=O)C[C@H]1[C@H](CO)[C@@H](C(=O)N[C@@H](C)c3ccccc3)N(C(=O)c3ccccn3)[C@@H]21 (mixture of isomers)	8
Cc1c(N2C(=O)c3cccc4cccc(c34)C2=O)c(=O)n(-c2ccccc2)n1C	-11
COc1ccccc1C#Cc1ccc2c(c1)[C@@H]1[C@@H](CCN1C(=O)c1ccncc1)[C@@H](CO)N2	-27
C[C@H](CO)N1C[C@H](C)[C@H](CN(C)C(=O)Nc2ccc3c(c2)OCO3)Oc2ncc(Br)cc2C1=O	i
Cn1c(C(=O)N2CCCCO2)cc2c1c1ccccc1n2C	133
O=C(c1cnnn1-c1ccccc1)N(Cc1ccccn1)CC1CCCO1 (stereo not drawn)	20
COCC#Cc1ccc([C@@H]2[C@@H](C#N)N(C(=O)Cc3ccccc3)[C@@H]2CO)cc1	-9
COc1ccc(C(NC(=O)c2[nH]nc(-c3ccccc3)c2C)c2ccncc2)cc1 (stereo not drawn)	-23
CCC(=O)NCc1cccc(-c2ccc(OC)cc2OC)c1	-1
CN1CCN(C(=O)c2cc3n(n2)CCN(Cc2c[nH]c4ccc(F)cc24)C3)CC1	3
CC(C)N1CC2(CCOCC2)c2cc(NC(=O)c3ccsc3)ccc21	4
COc1cccc(N2CC3(CCN(c4cnccn4)C3)CC2=O)c1 (stereo not drawn)	5
O=C(CNC(=O)OCc1ccccc1)NC1CCCCCC1	12
CCn1c(=O)n(CC)c2cc(CN(Cc3sccc3C)CC(C)O)ccc21 (stereo not drawn)	-32
COc1cccc2cc(C(=O)Nc3cnn(Cc4cccc(F)c4)c3)c(C)nc12	2
O=C(Nc1cccc(Cl)c1)N1CCN(CCO)CC1	7
CCCNC(=O)Nc1ccc2c(c1)OC[C@H](C)N(S(C)(=O)=O)C[C@H](C)[C@@H](OC)CN(C)C2=O	88
O=C(c1ccc(CN2CCS(=O)(=O)CC2)cc1)N1C[C@H]2CC=CC[C@H]2C1	5
Cc1ccc(S(=O)(=O)N2CCC3(CC2)OC(C(=O)N(C)C)Cn2ccnc23)cc1 (stereo not drawn)	-54

4 records picked at random from the list so far, as already listed:
SMILES	Tgondii IFNg
Cc1ccc(S(=O)(=O)N2CCC3(CC2)OC(C(=O)N(C)C)Cn2ccnc23)cc1 (stereo not drawn)	-54
CC(C)N1CC2(CCOCC2)c2cc(NC(=O)c3ccsc3)ccc21	4
COc1cccc2cc(C(=O)Nc3cnn(Cc4cccc(F)c4)c3)c(C)nc12	2
CCCNC(=O)Nc1ccc2c(c1)OC[C@H](C)N(S(C)(=O)=O)C[C@H](C)[C@@H](OC)CN(C)C2=O	88

Next section
SMILES	Tgondii IFNg
COCC1CCC2(CCN(C(=O)C3CC(F)(F)C3)CC2)N1CC1CC1 (stereo not drawn)	5
Cc1nc(CN2CCC(N(C)C)CC2C(=O)O)cs1 (stereo not drawn)	-16
CC(C)=CCC/C(C)=C/COc1ccc2ccc(=O)oc2c1	19
O=C(COc1ccc2nsnc2c1)Nc1cccc(-c2csnn2)c1	-13
Cc1cc(C(=O)N2CC(c3ccncc3)C2)n[nH]1	-49
Cc1ccc(C2(O)CCN(C(=O)c3ccc(-c4ncn[nH]4)cc3)CC2)nc1	-49
CCOc1ccccc1CNC(=O)C1CCN(S(=O)(=O)c2ccc3[nH]c(=O)ccc3c2)CC1	8
O=C(Nc1ccc(CCO)cc1)C1CC2(CCNCC2)c2ccccc21 (stereo not drawn)	3
COC(=O)c1ccc2c(c1)N(Cc1nc(-c3ccccc3OC)oc1C)C(=O)c1ccccc1S2	-63
CCn1cc(-c2cc(C(=O)Nc3nc(-c4cc(C)c(OC)cc4C)cs3)no2)cn1	-42
COc1ccc(-c2ccc(C3[C@@H]4CN(C(=O)c5ccc(F)cc5)C[C@H]3N4)cc2)cc1 (stereo partly drawn)	30&-47
O=C(CCC1CCCN(C(=O)c2noc3c2CCCC3)C1)N1CCN(c2ccccn2)CC1 (stereo not drawn)	-7

Gathered by group: those above containing two or more sulfur atoms (two)
SMILES	Tgondii IFNg
S=C(NCCOCCOCCNC(=S)Nc1ccccc1)Nc1ccccc1	13
O=C(COc1ccc2nsnc2c1)Nc1cccc(-c2csnn2)c1	-13

Carrying on.
SMILES	Tgondii IFNg
CCCC#Cc1cnc2c(c1)C(=O)N([C@@H](C)CO)C[C@H](C)[C@H](CN(C)C(=O)Nc1cc(F)ccc1F)O2	65
CN(CCCCCCCCCCN(C)C(=O)Oc1cccc([N+](C)(C)C)c1)C(=O)Oc1cccc([N+](C)(C)C)c1	7
CCOC(=O)N1CCN(CC(O)COc2ccc(OC(F)(F)F)cc2)CC1 (stereo not drawn)	-19
O=C(c1ccccc1)N1CCN(S(=O)(=O)c2cc3c4c(c2)CCC(=O)N4CCC3)CC1	37
O=C(c1ccccn1)N1CCC2OCCCC2(COCC2CC2)C1 (stereo not drawn)	0
CC(=O)N1CCO[C@H]2CCN(C(=O)c3snnc3C)C[C@H]21	81
O=C(C[C@H]1COC[C@@H]2CN(Cc3ccc(F)cc3)C[C@@H]12)NCC1CC1	-6
COc1ccccc1-c1cc(NC(=O)c2cc3cc(C)ccc3o2)n(C)n1	-3
CC(C)N(C(=O)c1ccc(-c2ccccc2F)cc1)C(C)C	19
COc1ccc(Cl)cc1NC(=O)Cn1c(=O)cc(C(=O)N2CCCCC2)c2ccccc21	-2
COc1ccc(C[C@@H]2CCn3cc(nn3)COC[C@@H](c3ccccc3)NC2=O)cc1	-9
Cc1oc(-c2ccccc2)nc1CN1C(=O)CSc2ccc(S(=O)(=O)N3CCCCCC3)cc21	-95*
CC1CCN(S(=O)(=O)c2ccc3c(c2)CCC(=O)N3CC(=O)Nc2ccc(Cl)cc2)CC1	-92*
O=c1cc(Nc2ccc(OC(F)(F)F)cc2)c2ccccc2o1	-102*
CC(C)n1cnc2c(-c3cnn(C)c3)nc(C3CCN(Cc4cccnc4)CC3)cc21	-2
CCN1C[C@@H]2C3(CCN(S(C)(=O)=O)CC3)CC[C@]2(C(=O)N2CCCC2)C1	3
CC(C)CN(CC(C)C)C(=O)c1cc2cccnc2n(Cc2ccccc2F)c1=O	-67
CC(C)NC(=O)[C@H]1C[C@@H]2CN(c3ncccn3)C[C@H]1O2	-56
CCCN1C(=O)CCc2cc(NC(=O)c3ccn(CC)n3)ccc21	96
CO[C@H](CN(C)Cc1ccc(-c2ccccn2)cc1)[C@@H](C)CN(C(=O)Nc1ccc(F)cc1)[C@H](C)CO	28
O=C(Cc1ccccc1)NC[C@@H]1CCNC[C@H]1O	6
Cc1cccc(-c2nc(Cc3noc(COc4ccccc4)n3)c(C)o2)c1	-22
Cc1ccc(NC(=O)CN2C(=O)CCc3cc(S(=O)(=O)N4CCC(C)CC4)ccc32)c(C)c1	-28
CCC(=O)N1[C@@H](C#N)[C@@H](c2ccccc2-c2ccccc2)[C@@H]1CO	-29
C/C(=N\NC(=O)C1(C)CC1(Br)Br)c1ccc([N+](=O)[O-])cc1 (stereo not drawn)	34
Cn1c(SCc2ccc(C#N)cc2)nnc1-c1cnccn1	-28
CCN1CCC2(CC1)OC(=O)C(C)=C2C(=O)Nc1ccc(C)c(Cl)c1	9
CO[C@H]1CC[C@@H]2CCOc3c(C#N)cccc3C(=O)N(C)C[C@H](OC)[C@H](C)C(=O)N(C)C[C@@H]1O2	-34
O=C(C[C@@H]1CC[C@H](NC(=O)CC2CC2)[C@H](CO)O1)NCC(F)(F)F	56
COC(=O)[C@@H]1C[C@@H](N(C)C)CN1C(=O)c1ccncc1Cl	3
Cc1ccsc1CNS(=O)(=O)c1cccc2nonc12	41
O=C(CN(C(=O)c1nsc(Cl)c1Cl)C1CCCCC1)NCCc1ccccc1	-11
CCN(Cc1cc(C)[nH]n1)CC1CCCO1 (stereo not drawn)	-3
CSc1cc(-c2ccc(F)cc2)nn1S(=O)(=O)c1cccc(C(F)(F)F)c1	5
CN1CCC(Cc2noc(-c3ccc(-c4ccccc4)[nH]3)n2)CC1	-24
Fc1cc(Cl)ccc1CSc1nc2ncccc2[nH]1	32

In the list so far, these contain a furan ring, fused or not.
SMILES	Tgondii IFNg
O=C(NCc1ccco1)C1CCN(c2nc3ccccc3s2)CC1	30
COc1ccccc1-c1cc(NC(=O)c2cc3cc(C)ccc3o2)n(C)n1	-3

Additional entries follow.
SMILES	Tgondii IFNg
COc1ccc2c3c(n(C)c2c1)[C@H](CO)N(Cc1ccccc1OC)CC31CCN(CC2CC2)CC1	-32
COc1cccc(CN2CCC3(CCN(S(=O)(=O)C4CC4)C3)C2=O)c1 (stereo not drawn)	-11
CCN(CC)CCNC(=O)c1ccc2nnc(C3CN(CC4CC4)CCN3C)n2c1 (stereo not drawn)	-3
CC(C)NC(=O)N1CCCC2(COCCN(c3nncs3)C2)C1 (stereo not drawn)	6
Cc1[nH]c2ccccc2c1C(=O)C(=O)NC1CC(=O)N(c2ccc3c(c2)OCCO3)C1 (stereo not drawn)	-1
O=C(c1ccc(Br)o1)N1CCN(S(=O)(=O)c2cc3c4c(c2)CCN4C(=O)CC3)CC1	26
O=C(NC1CCCC1)N1CC(=O)N2[C@H](CO)[C@H](c3ccc(C4=CCCCC4)cc3)[C@@H]2C1	-34
Cn1nc(C(F)(F)F)c(-c2ccc(Br)cc2)c1NC(=O)C1CCC1C(=O)O (stereo not drawn)	-10
CCS(=O)(=O)n1nc(-c2ccc(OC)cc2)nc1SC	-58
CCc1ccc(CN(C)S(=O)(=O)NCc2ccccc2)nc1	-2
CN(Cc1ncc[nH]1)C(=O)c1cnc(-c2ccccc2)nc1	3
O=S(=O)(Oc1ccc(Cl)cc1)c1csc(C(F)(F)F)c1-c1ccccc1	-26
O=C(NCCc1csc(-c2ccc(F)cc2)n1)c1ccc(Br)cc1	-79*
O=c1cc(CN2CCCC2)nc2n1CCCNC2	-4
CN(C)c1ccc(CN2CCC(n3cc(-c4cccnc4)nn3)CC2)cc1	3
Cc1ccc(-n2ncc3c(-n4nc(C)cc4NC(=O)CCC4CCCCC4)ncnc32)c(C)c1	19
CCCS(=O)(=O)N1CCOC2(CCCN(c3nnc(C)o3)C2)C1 (stereo not drawn)	-4
CC(C)N1CCOCC2(CCCN(C(=O)Cc3ccsc3)C2)C1 (stereo not drawn)	-3
Cc1cccc(C(=O)N2CCC(N(C)C)CC2C(=O)O)n1 (stereo not drawn)	0
Cc1ccc(CCC(=O)N2CCn3nc(C(=O)N4CCN(C)CC4)cc3C2)cc1	34
CCOc1ccccc1-c1nc(Cn2ccn3nc(-c4ccc(OC)cc4)cc3c2=O)c(C)o1	-34
COc1ccc(CNC(=O)c2cncc(N(C)S(=O)(=O)c3ccccc3)c2)cc1	13
Clc1ccc(-c2cn[nH]c2C2CCCNC2)cc1 (stereo not drawn)	1
Cc1ccc(C(=O)N2C[C@@H]3CN(c4ccc(C)nn4)CC[C@H]3C2)cc1	0
CCCCCC1CCC(c2ccc(-c3ccc(CCC)cn3)cc2)CC1 (stereo not drawn)	5
CC(C)C1=NOC(CNC(=O)c2cc(-c3cccn3C)n[nH]2)C1 (stereo not drawn)	27
COCCN1C(=O)CO[C@H]2CN(S(=O)(=O)c3ccccc3)C[C@@H]21	-19
COc1ccccc1-c1cc(Cn2cc(-c3ccc(C)o3)nn2)on1	-10
O=P(c1ccccc1)(c1ccccc1)c1nc(-c2ccc(Cl)cc2)oc1N1CCOCC1	42
COCCNC(=O)C[C@H]1CC[C@H]2[C@H](COc3ccc(NS(=O)(=O)c4ccc(Cl)cc4)cc3C(=O)N2C)O1	-16
CN(C)CCC1(c2ccc(Cl)cc2)Cc2ccccc2C(=O)O1 (stereo not drawn)	14&4
O=C(c1ccc(Br)cc1)N(Cc1ccccc1)Cc1nc2ccccc2c(=O)[nH]1	-16
C=CCc1cc(CN2CCC(N)(C(=O)O)C2)ccc1OC (stereo not drawn)	1
Cn1c2c(ccc1=O)CCN(C(=O)N1CCOCC1)CC2	94
CCn1nc(CC(C)C)cc1C(=O)N1CCCC1Cn1cccn1 (stereo not drawn)	6
O=S(=O)(c1ccc(F)cc1)N1CCCCN2[C@H](C1)[C@@H](c1ccc(-c3cncnc3)cc1)[C@@H]2CO	3
C=CCN1CCN(C(=O)C2=NNC(=O)CC2)CC(Cc2ccccc2-c2cccnc2)C1=O (stereo not drawn)	-9
CCOc1ccc(-c2nccn2C2CCCC2)cc1CO	1
Cc1nccc(-c2cccc(NS(=O)(=O)NCc3ccccc3)c2)n1	1
C=CCSc1nc2c(c(C3CC=CCC3)c1C#N)CCC2 (stereo not drawn)	-1
C/C(=C\c1ccco1)CN1CCC(CNC(=O)c2ccoc2C)C1 (stereo not drawn)	-5
CCc1cnc(N2CC3(CCN(c4nccs4)C3)C2)nc1	-7
O=C(NCc1ccc(F)cc1)c1c(O)c2ccccc2n(-c2ccccc2)c1=O	100
COCCN1C(=O)CCc2cc(NC(=O)c3ccc4c(c3)OCO4)ccc21	-39
CC(C)c1ccc(S(=O)(=O)N2CCC3(CC2)NCCN=C3NCc2cccc(F)c2)cc1	-10
COCCCNC(=S)Nc1cccc2ccccc12	-50

Part of the list above, as a markdown table:
| SMILES | Tgondii IFNg |
| --- | --- |
| C=CCSc1nc2c(c(C3CC=CCC3)c1C#N)CCC2 (stereo not drawn) | -1 |
| C/C(=C\c1ccco1)CN1CCC(CNC(=O)c2ccoc2C)C1 (stereo not drawn) | -5 |
| CCc1cnc(N2CC3(CCN(c4nccs4)C3)C2)nc1 | -7 |
| O=C(NCc1ccc(F)cc1)c1c(O)c2ccccc2n(-c2ccccc2)c1=O | 100 |
| COCCN1C(=O)CCc2cc(NC(=O)c3ccc4c(c3)OCO4)ccc21 | -39 |

Screens as filed in PubChem.
